# Vaccinia inh: blocks a specific stage of Vaccinia orthopoxvirus infection, primary screen, cell-based, single point | Vaccinia-infected cells, mCherry/Venus stage reporter fluorescence; hits give low values; some inactives read as strong as hits | activity change (mCherry), % (test concentration not listed) | 89,000 compounds, 0.01% hits | AID 1053133, 2014;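 active means mCherry past -33% and 40 or more points under the early reporter, replicates agreeing; inconclusive means past -33% without that gap or agreement; tested in A549 cells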;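 further: scaled between vehicle wells and reference inhibitor wells; 23 nL library stock went into each well; one replicate is shown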
# Vaccinia inh Venus: also measured in Vaccinia inh; calls as there; activity change (Venus), %; measured here: Venus reporter, other viral stage;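 negative = less Venus signal; first of two replicates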
# Active calls of the source: *; ? = inconclusive; . = not tested or not shown; & = joins results of further samples. Only part of the results is shown. The share of hits here may be higher or lower than overall.
SMILES,Vaccinia inh,Vaccinia inh Venus
COC(=O)[C@@H]1[C@@H](CO)[C@@H]2Cn3c(ccc(-c4ccccc4OC)c3=O)[C@@H]2N1C(=O)c1cccnc1,3,9
O=C(C[C@@H]1C=C[C@@H](NC(=O)C2CCOCC2)[C@@H](CO)O1)NCc1ccncc1,-9,0
CCCN1C[C@H](C)[C@H](OC)CN(C)C(=O)c2ccc(NC(=O)Nc3c(C)noc3C)cc2OC[C@@H]1C,6,-1
C[C@@H]1CN([C@H](C)CO)C(=O)Cc2cc(NS(C)(=O)=O)ccc2O[C@@H]1CN(C)C(=O)Nc1cccc2ccccc12,28,20
Cc1noc(C)c1S(=O)(=O)Nc1ccc2c(c1)C(=O)N([C@@H](C)CO)C[C@H](C)[C@@H](CN(C)Cc1ccccc1)OCCCC[C@H](C)O2,-28,-14
Cc1ccc(S(=O)(=O)N(C)C[C@@H]2Oc3ccc(NC(=O)Cn4cnnn4)cc3C(=O)N([C@@H](C)CO)C[C@@H]2C)cc1,18,15
O=C(CN1CCOCC1)NCC[C@@H]1CC[C@H](NC(=O)Nc2ccc(Cl)cc2)[C@@H](CO)O1,1,4
CCCNC(=O)C[C@H]1CC[C@@H]2[C@H](COC[C@H](O)CN2Cc2ccncc2)O1,-2,0
CO[C@H]1CN(C)C(=O)c2cc(NC(=O)NC(C)C)ccc2OC[C@H](C)N(Cc2ccccc2)C[C@H]1C,-7,-1
CN1C(=O)c2cc(NC(=O)c3ccc(F)c(F)c3)ccc2OC[C@@H]2O[C@@H](CC(=O)N3CCCCC3)CC[C@H]21,6,10
O=C(O)C[C@@H]1CC[C@@H](NC(=O)c2ccncc2)[C@@H](CO)O1,4,0
CO[C@H]1CN(C)C(=O)c2cc(NS(=O)(=O)c3cccc(F)c3)ccc2OC[C@@H](C)N(Cc2cc(F)ccc2F)C[C@H]1C,?,.
C[C@H](CO)N1C[C@H](C)[C@H](CN(C)Cc2ccc(C(F)(F)F)cc2)Oc2ccc(NC(=O)Nc3cccc4ccccc34)cc2CC1=O,-9,-5
C[C@H](CO)N1C[C@H](C)[C@H](CN(C)Cc2ccccc2)Oc2ccc(NS(=O)(=O)c3cccs3)cc2CC1=O,-21,-22
CO[C@H](CN(C)S(=O)(=O)c1ccc(Cl)cc1)[C@H](C)CN(C(=O)Nc1ccccc1F)[C@@H](C)CO,-5,5
COc1ccc(S(=O)(=O)Nc2ccc3c(c2)CC(=O)N([C@H](C)CO)C[C@H](C)[C@@H](CN(C)S(C)(=O)=O)O3)cc1,7,7
CC(C)NC(=O)N(C)C[C@@H]1Oc2ccc(NC(=O)CCCCCC(=O)Nc3ccccc3N)cc2CC(=O)N([C@H](C)CO)C[C@@H]1C,12,2
COc1ccccc1NC(=O)N[C@@H]1CC[C@@H](CCn2cc(-c3ccccc3OC)nn2)O[C@H]1CO,-15,-5
COc1ccc2c3c(n(C)c2c1)[C@H](CO)N(C(=O)c1ccncc1)CC31CCN(S(C)(=O)=O)CC1,13,4
O=C(Nc1ccccc1)N1CCCCN2[C@H](CO)[C@@H](c3ccc(C4=CCCCC4)cc3)[C@H]2C1,?,.
Cc1ccccc1-c1ccc([C@H]2[C@@H](CO)N3CCCCN(C(=O)NC4CCCC4)C[C@H]23)cc1,?,.
O=C(N[C@@H]1CC[C@@H](CCNC(=O)c2ccccc2F)O[C@H]1CO)c1ccc2c(c1)OCO2,-1,1
C[C@@H]1CCCCO[C@@H](CN(C)C(=O)Cc2ccccc2)[C@@H](C)CN([C@H](C)CO)C(=O)c2cc(NS(=O)(=O)c3cccs3)ccc2O1,2,1
C[C@@H]1CN([C@H](C)CO)C(=O)c2cc(NC(=O)CCCN(C)C)ccc2O[C@H]1CN(C)CC1CCCCC1,-2,-1
Cc1noc(C)c1NC(=O)Nc1ccc2c(c1)C(=O)N([C@H](C)CO)C[C@H](C)[C@H](CN(C)Cc1ccc(C(=O)O)cc1)O2,11,0

# In the list so far, these have sulfur:
SMILES,Vaccinia inh,Vaccinia inh Venus
C[C@@H]1CN([C@H](C)CO)C(=O)Cc2cc(NS(C)(=O)=O)ccc2O[C@@H]1CN(C)C(=O)Nc1cccc2ccccc12,28,20
Cc1noc(C)c1S(=O)(=O)Nc1ccc2c(c1)C(=O)N([C@@H](C)CO)C[C@H](C)[C@@H](CN(C)Cc1ccccc1)OCCCC[C@H](C)O2,-28,-14
Cc1ccc(S(=O)(=O)N(C)C[C@@H]2Oc3ccc(NC(=O)Cn4cnnn4)cc3C(=O)N([C@@H](C)CO)C[C@@H]2C)cc1,18,15
CO[C@H]1CN(C)C(=O)c2cc(NS(=O)(=O)c3cccc(F)c3)ccc2OC[C@@H](C)N(Cc2cc(F)ccc2F)C[C@H]1C,?,.
C[C@H](CO)N1C[C@H](C)[C@H](CN(C)Cc2ccccc2)Oc2ccc(NS(=O)(=O)c3cccs3)cc2CC1=O,-21,-22
CO[C@H](CN(C)S(=O)(=O)c1ccc(Cl)cc1)[C@H](C)CN(C(=O)Nc1ccccc1F)[C@@H](C)CO,-5,5
COc1ccc(S(=O)(=O)Nc2ccc3c(c2)CC(=O)N([C@H](C)CO)C[C@H](C)[C@@H](CN(C)S(C)(=O)=O)O3)cc1,7,7
COc1ccc2c3c(n(C)c2c1)[C@H](CO)N(C(=O)c1ccncc1)CC31CCN(S(C)(=O)=O)CC1,13,4
C[C@@H]1CCCCO[C@@H](CN(C)C(=O)Cc2ccccc2)[C@@H](C)CN([C@H](C)CO)C(=O)c2cc(NS(=O)(=O)c3cccs3)ccc2O1,2,1

# Going on with the list.
SMILES,Vaccinia inh,Vaccinia inh Venus
COc1ccc(NC(=O)N2CC(=O)N3[C@H](CO)[C@H](c4ccc(C#CCC5CCCC5)cc4)[C@H]3C2)cc1,-26,-15
C[C@@H]1CN([C@H](C)CO)S(=O)(=O)c2ccc(C#Cc3ccncc3)cc2O[C@@H]1CN(C)C(=O)Nc1ccc2c(c1)OCO2,?,.
O=C(C[C@@H]1C=C[C@H](NC(=O)Nc2ccccc2)[C@H](CO)O1)NCc1cccc(F)c1,2,3
Cc1noc(C)c1S(=O)(=O)Nc1ccc2c(c1)C(=O)N([C@H](C)CO)C[C@H](C)[C@@H](CN(C)S(=O)(=O)c1ccc(F)cc1)OCCCC[C@H](C)O2,?,.
C[C@@H]1CN([C@@H](C)CO)C(=O)c2cc(-c3ccccc3F)cnc2O[C@H]1CN(C)C(=O)C1CCOCC1,2,13
CN1CCN(C(=O)C[C@H]2C[C@@H]3c4cc(NC(=O)Cc5ccncc5)ccc4O[C@@H]3[C@H](CO)O2)CC1,1,-13
COc1ccc(NC(=O)Nc2cccc3c2O[C@@H](CN(C)CC2CCCCC2)[C@H](C)CN([C@@H](C)CO)C3=O)cc1,-5,3
C[C@H](CO)N1C[C@H](C)[C@H](CN(C)S(C)(=O)=O)Oc2ncc(C#Cc3cccnc3)cc2C1=O,19,8
CC(C)NC(=O)Nc1ccc2c(c1)C(=O)N([C@H](C)CO)C[C@H](C)[C@H](CN(C)C(=O)c1ccccc1)OCCCC[C@@H](C)O2,25,14
COc1cccc(S(=O)(=O)N(C)C[C@H]2OCc3ccccc3-c3c(n(C)c4ccccc34)C(=O)N([C@@H](C)CO)C[C@H]2C)c1,?,.
C[C@@H]1CCCCO[C@H](CN(C)S(=O)(=O)c2cn(C)cn2)[C@@H](C)CN([C@H](C)CO)C(=O)c2cc(NS(=O)(=O)c3ccccc3)ccc2O1,15,21
COc1ccc(NC(=O)Nc2ccc3c(c2)C(=O)N([C@H](C)CO)C[C@H](C)[C@@H](CN(C)C(=O)Cc2ccccc2)OCCCC[C@@H](C)O3)cc1,2,-7
C[C@@H]1CN([C@@H](C)CO)C(=O)c2cc(C#Cc3ccccc3F)cnc2O[C@H]1CN(C)C(=O)Cc1ccncc1,21,7
CO[C@@H]1CN(C)C(=O)c2cc(NS(=O)(=O)c3ccccc3)ccc2OC[C@@H](C)N(Cc2ccccn2)C[C@@H]1C,-16,-16
COc1ccc2c3c(n(C)c2c1)[C@H](CO)NCC31CCN(S(=O)(=O)c2cccc(C)c2)CC1,-30,-20
COC(=O)C[C@H]1C[C@@H]2c3cc(NC(=O)C4CCC4)ccc3O[C@@H]2[C@@H](CO)O1,0,-4
COc1cccc(CN2[C@H](CO)[C@H]3c4ccccc4N(C(=O)c4cccnc4)C[C@H]32)c1,-11,-6
COCCNC[C@H]1[C@@H](c2ccccc2)[C@@H](CO)N1c1nc(C)c(C)s1,-8,-2
C/C=C/c1cnc2c(c1)C(=O)N([C@@H](C)CO)C[C@H](C)[C@@H](CN(C)Cc1ccncc1)O2,29,16
O=C(NC1CCCCC1)N1[C@@H]2CNC[C@H]1C2c1ccc(-c2ccccc2F)cc1 (some centres undefined),-9,4
CN1CCN(C(=O)C2=C[C@@H](C3CCCCC3)C[C@@H](OCCCCO)O2)CC1,16,16
COCC(=O)N1[C@H](C(=O)Nc2ccccc2)[C@@H](CO)[C@@H]2Cn3c(ccc(-c4ccc(F)cc4)c3=O)[C@@H]21,6,-4
CCC(=O)N1C[C@H](C)[C@@H](OC)CN(C)C(=O)c2cc(NC(=O)NC3CCCC3)ccc2OC[C@@H]1C,13,11
C[C@H](CO)N1C[C@H](C)[C@@H](CN(C)C(=O)Nc2ccc(C(F)(F)F)cc2)Oc2ccc(NC(=O)c3ccncc3)cc2CC1=O,-3,-7
Cc1ccc(S(=O)(=O)Nc2ccc3c(c2)C(=O)N([C@@H](C)CO)C[C@H](C)[C@@H](CN(C)S(=O)(=O)c2ccc(F)cc2)OCCCC[C@H](C)O3)cc1,?,.

# Remaining list, next part:
SMILES,Vaccinia inh,Vaccinia inh Venus
O=C(Nc1ccccc1)N[C@@H]1CC[C@H](CCn2cc(C3(O)CCCC3)nn2)O[C@@H]1CO,14,8
C[C@@H]1CCCCO[C@@H](CN(C)Cc2ccncc2)[C@H](C)CN([C@H](C)CO)C(=O)c2cc(NC(=O)NC3CCCCC3)ccc2O1,-12,-3
C[C@@H](NC(=O)C[C@@H]1CC[C@@H](NC(=O)C2CCC2)[C@H](CO)O1)c1ccccc1,4,7
COc1ccc(-c2ccc3c(c2)O[C@@H](CN(C)CC2CCOCC2)[C@H](C)CN([C@@H](C)CO)S3(=O)=O)cc1,-29,-24
C[C@H](CO)N1C[C@H](C)[C@@H](CN(C)Cc2ccccn2)Oc2ncc(Br)cc2C1=O,8&0,7&0
Cc1ccc(S(=O)(=O)N[C@@H]2CC[C@@H](CCn3cc(C4(O)CCCC4)nn3)O[C@H]2CO)cc1,8,6
Cc1noc(C)c1NC(=O)NCC[C@H]1CC[C@H](NC(=O)Nc2cccc(Cl)c2)[C@@H](CO)O1,-3,4
O=C(NCC[C@@H]1CC[C@@H](NS(=O)(=O)Cc2ccccc2)[C@H](CO)O1)C1CCCCC1,0,4
O=C(N[C@H]1CC[C@H](CCn2cc(C3(O)CCCC3)nn2)O[C@@H]1CO)c1ccccc1F,-3,4
CCCC(=O)Nc1ccc2c(c1)C(=O)N(C)C[C@H](OC)[C@H](C)CN(S(=O)(=O)c1cn(C)cn1)[C@@H](C)CO2,13,7
CO[C@H]1CN(C)C(=O)c2ccc(NC(=O)c3ccc(Oc4ccccc4)cc3)cc2OC[C@H](C)NC[C@H]1C,?,.
COc1ccc2c3c([nH]c2c1)[C@H](CO)N(Cc1ccccn1)CC31CCN(C(=O)CC2CC2)CC1,8,11
C[C@@H]1CN([C@H](C)CO)C(=O)c2cccc(NS(C)(=O)=O)c2O[C@@H]1CN(C)S(=O)(=O)c1cccs1,6,6
O=C(N[C@@H]1CC[C@H](CC(=O)N2CCOCC2)O[C@H]1CO)c1ccc2c(c1)OCO2,13,15
CCS(=O)(=O)N1CCCCN2[C@H](CO)[C@@H](c3ccc(-c4ccccc4C)cc3)[C@H]2C1,-20,-16
O=C(C[C@@H]1CC[C@@H](NC(=O)c2ccncc2)[C@@H](CO)O1)NCCc1ccncc1,15,16
COc1ccc(NC(=O)Nc2ccc3c(c2)C(=O)N([C@H](C)CO)C[C@@H](C)[C@H](CN(C)CC2CC2)OCCCC[C@@H](C)O3)cc1,2,-10
CNC[C@H]1Oc2cc(C#CC3(O)CCCC3)ccc2S(=O)(=O)N([C@@H](C)CO)C[C@@H]1C,-13,-3
C[C@@H]1CN([C@H](C)CO)C(=O)c2cc(C#Cc3ccncc3)cnc2O[C@H]1CN(C)CC1CCOCC1,6,13
C[C@H](CO)N1C[C@H](C)[C@H](CN(C)C(=O)C2CC2)Oc2cc(C#Cc3ccccc3)ccc2S1(=O)=O,?,.
CC(=O)N(C)C[C@@H]1Oc2cc(C#Cc3ccccc3F)ccc2S(=O)(=O)N([C@H](C)CO)C[C@@H]1C,-29,-23
C[C@H]1CN([C@@H](C)CO)C(=O)Cc2cc(N(C)C)ccc2O[C@@H]1CN(C)Cc1ccc(Cl)c(Cl)c1,?,.
COc1cccc(C(=O)Nc2ccc3c(c2)C(=O)N(C)[C@@H]2CC[C@@H](CC(=O)N[C@@H](C)c4ccccc4)O[C@@H]2CO3)c1,8,3
O=C(C[C@H]1C[C@@H]2c3cc(NC(=O)C4CCC4)ccc3O[C@@H]2[C@@H](CO)O1)NC1CCCC1,-5,8
C[C@@H]1CN([C@H](C)CO)C(=O)c2cc(NC(=O)CCCN(C)C)ccc2O[C@@H](C)CCCCO[C@H]1CN(C)C(=O)Nc1cccc2ccccc12,32,22
C[C@@H]1CN([C@H](C)CO)S(=O)(=O)c2ccc(C3=CCCC3)cc2O[C@@H]1CN(C)Cc1cccc(C(=O)O)c1,5,0
COc1ccccc1S(=O)(=O)N(C)C[C@@H]1OCc2cn(nn2)CCCC(=O)N([C@@H](C)CO)C[C@@H]1C,13,8
C[C@H]1CN([C@@H](C)CO)C(=O)c2cccc(NC(=O)c3ccc(-c4nccs4)cc3)c2O[C@H]1CN(C)S(C)(=O)=O,24,12
C[C@H](CO)N1C[C@H](C)[C@@H](CN(C)C(=O)Nc2ccc(F)cc2)Oc2ncc(-c3cccnc3)cc2C1=O,45,16

# Assay outcomes from PubChem.
